Screens: PubChem, National Center for Advancing Translational Sciences (NCATS)
Vaccinia mCherry: inhibitors of vaccinia virus infection (mCherry reporter signal); Vaccinia virus mCherry reporter infection, fluorescence; about a quarter of the inactives have no number; Potency, µM (doses to about 36.5 µM), for the others: top-dose activity change, negative = inhibition, hits mostly inhibitors; hit rate 0.63% among 310,000; AID 720579; active = well fitted inhibition curve with a large enough effect; inconclusive = small, poorly fitted or top-dose-only effect; inactive = no such curve, though single readings can be large or run the other way; tested in A549 cells; further: nearly all actives have a fitted effect of over 35% in size; inactives centre near -10
Vaccinia Venus: vaccinia inhibition (Venus reporter) | Potency, µM (titrated, usually from 36.5 µM), inactives show at the highest dose activity change, negative = inhibition, usual class: inhibitors | hit rate 0.46% among 330,000 | Vaccinia virus Venus reporter expression, fluorescence; active means well fitted inhibition curve with a large enough effect; inconclusive means small, poorly fitted or top-dose-only effect; inactive means no such curve, though single readings can be large or run the other way; tested in A549 cells; further: nearly all actives have a fitted effect of over 30% in size; inactives centre near -10
* = called active by the depositor; i = inactive; ? = inconclusive; · = not tested or not shown; & = joins results of further samples; [ ] = dose if it differs, or a comment. On the % scale 0 is the no-effect control and ±100 the full control effect; potency means the concentration at half of the fitted maximal effect.

SMILES | Vaccinia mCherry | Vaccinia Venus
COC(=O)c1ccc(CNC(=O)CN2C(=O)NC(Cc3ccccc3)(c3ccccc3)C2=O)cc1 (stereo not given) | -24% | ?
O=C(/C=C/c1ccccc1)NC(=S)N1CCSCC1 | -3% | 0%
CCOc1ccc(CNC(=O)Cn2c(=O)c3cccn3c3ccc(F)cc32)cc1 | -1% | -6%
Cc1cccc(-c2nnc3n2N=C(c2ccccc2Br)CS3)c1 | -24% | -21%
CCOC(=O)c1[nH]c2ccc(OC)cc2c1NC(=S)N1CCN(c2ccccc2)CC1 | -15% | -7%
O=c1[nH]c(Cc2ccc(F)cc2)nc2scc(-c3ccc(F)cc3)c12 | -19% | -10%
CCCC(=O)Nc1nc2ccc(S(=O)(=O)N3CCCCC3)cc2s1 | ? | -25%
CC1CCCCC12NC(=O)N(CC(=O)c1ccc[nH]1)C2=O (stereo not given) | -14% | -1%
O=C(OCCc1cc2ccccc2c(=O)o1)c1cccc(Br)c1 | -19% | -7%
CCOc1c(Cl)cc(/C=N/O)cc1OC | · | -5%
O=C(c1cc2c(s1)CCCC2)N1CCN(Cc2ccc3c(c2)OCO3)CC1 | ? | ?
COc1ccccc1OCc1ccc(C(=O)NCC(C)C)o1 | i | -10%
COc1ccccc1CNc1ncncc1-c1ccc(N(C)C)cc1 | 15% | 0%
O=C(COC(=O)CN1C(=O)c2ccccc2C1=O)NC1CCCC1 | 8% | 5%
Cc1nnc(SCC(=O)NCC2CCCCC2)n(N)c1=O | · | -1%
Cc1ccc(OCCC(=O)OCC(=O)NC(=O)NCc2ccccc2)cc1 | -16% | -16%
NC(N)=NS(=O)(=O)c1ccc(N)cc1 | -12% | -6%&1%
Cc1cc(NC(=O)COC(=O)c2ccco2)no1 | i | -17%
O=C1CC(NS(=O)(=O)c2ccc([N+](=O)[O-])cc2)CN1c1cccc(F)c1 (stereo not given) | i | -9%
CCCNC(=O)Nc1cccc(NC(C)=O)c1 | -2% | -7%
COc1cccc(NC(=O)COC(=O)c2cc(S(=O)(=O)N3CCOCC3)ccc2C)c1 | i | -21%
COc1ccc(-c2nc3scc(CCNS(=O)(=O)c4ccc(F)c(C(F)(F)F)c4)n3n2)cc1OC | i | -17%
Cc1ccc(NC(=O)CN2CCCCC2)c2c1CC(C)(C)O2 | i | -14%
COc1cc(/C=N/NC(=O)CC(=O)NC2CCCCC2)ccc1O | i | -8%
CCOC(=O)CCNC(=O)c1ccc2nc(C3CCCCC3)oc2c1 | -7% | 7%
Cc1ccc(N/N=C(\C#N)C(=N)N2CCCCCC2)cc1 | -27% | -19%
O=C(O)CCCC(=O)NNC(=O)c1cccc(Br)c1 | i | -1%
CC1CCN(S(=O)(=O)c2ccc(NC(=O)c3ccco3)cc2)CC1 | -19% | -16%
Cc1ccsc1C(=O)C1CCCN(Cc2cccc(OCCO)c2)C1 (stereo not given) | -16% | -12%
O=C(COc1ccc(-c2nnc(N3CCCCC3)c3ccccc23)cc1)N1CCCCC1 | -21% | ?

Whole records from above. Values in the order: Vaccinia mCherry | Vaccinia Venus
O=C(COc1ccc(-c2nnc(N3CCCCC3)c3ccccc23)cc1)N1CCCCC1 across the screens: -21% | ?
COc1cccc(NC(=O)COC(=O)c2cc(S(=O)(=O)N3CCOCC3)ccc2C)c1 across the screens: i | -21%

The main list resumes, starting 5 compounds before the break.
SMILES | Vaccinia mCherry | Vaccinia Venus
Cc1ccc(N/N=C(\C#N)C(=N)N2CCCCCC2)cc1 | -27% | -19%
O=C(O)CCCC(=O)NNC(=O)c1cccc(Br)c1 | i | -1%
CC1CCN(S(=O)(=O)c2ccc(NC(=O)c3ccco3)cc2)CC1 | -19% | -16%
Cc1ccsc1C(=O)C1CCCN(Cc2cccc(OCCO)c2)C1 (stereo not given) | -16% | -12%
O=C(COc1ccc(-c2nnc(N3CCCCC3)c3ccccc23)cc1)N1CCCCC1 | -21% | ?
O=C(CCC1CCCC1)N1CCN(C2CCCC2)CC1 | -5% | -14%
CCCCC(=O)Nc1c2c(nn1-c1ccc(C)cc1)CS(=O)(=O)C2 | -12% | -17%
Cc1ccccc1-c1nc(CN2CCSCC2)c(C)o1 | i | -16%
COc1ccc(NC(=O)CSc2nc3ccccc3n2CC(=O)NCc2ccc(F)cc2)cc1 | -14% | -18%
CC(C)(C)Sc1nc(O)cc(=O)[nH]1 | i | -13%
COc1ccc2c3c1OC1C(=O)CC[C@@]4(O)[C@@H](C2)N(C)CC[C@]314 (stereo not given in full) | -24% | -11%
O=C(Nc1nnc(Cc2ccccc2)s1)c1cccnc1 | 3% | -8%
CCCCOc1ccc(-c2nnn(C(C)(C)C(=O)OC)n2)cc1 | -8% | -10%
COC(=O)c1c(NC(=O)CN2CCC3(O)CCCCC3C2c2ccccc2OC)sc(C)c1C (stereo not given) | i | -13%
O=C(NC1CCCCC1)c1cc(Nc2ccccc2)nc2ccccc12 | i | -11%
COc1ccc(COC(=O)NNC(=O)c2ccc(OC)cc2)cc1 | -4% | -6%
CSc1nncc(-c2ccc(F)cc2)n1 | · | -13%
Cc1cccc(NC(=O)CSCC(=O)N(CCC(C)C)c2c(N)n(Cc3ccccc3)c(=O)[nH]c2=O)c1 | -16% | -8%
Cc1nn(CC(=O)N2CCC(C)CC2)c(=O)c2cc3occc3n12 | -9% | 4%
O=C(CNC(=O)c1ccncc1)N/N=C/c1cc(Br)ccc1OCc1ccccc1 | -11% | -24%
COCc1nnc(NC(=O)c2ccc(S(=O)(=O)N(C)C3CCCCC3)cc2)o1 | ? | -25%
COc1ccccc1N=C(C)C1=C(O)CC(c2ccccc2)CC1=O (stereo not given) | ? | ?
Cc1[nH]nc2c1C(c1ccccc1F)NC2=O (stereo not given) | -12% | -6%
CCCNC(=O)C1(C)CCCN(C(=O)c2sccc2C)C1 (stereo not given) | i | 1%
S=c1nc(COc2ccccc2)[nH]c2ccccc12 | -11% | -21%
Cc1ccc(CN(C(=O)c2ccc(OCC(C)C)cc2)c2ccccn2)o1 | i | -11%
CCCn1c(C(C)Nc2nc(-c3ccc(Cl)c([N+](=O)[O-])c3)cs2)nc2cc(Cl)c(N3CCCCC3)cc21 (stereo not given) | ? | -16%
CN1CCN(c2ccc(CNC(=O)C3Cc4c(-c5ccc(Cl)cc5)ccnc4O3)cc2)CC1 (stereo not given) | -27% | -17%
Cc1ccc2c(c1)N(CC(=O)NCCCc1ccccc1)C(=O)c1cccnc1O2 | -8% | 7%
CCCCNC(=O)NS(=O)(=O)c1ccc(NC(=O)C(NC(N)=O)C(C)CC)cc1 (stereo not given) | i | 1%
Cc1cc(C)c(S(=O)(=O)Nc2ccccc2)c(C)c1 | -2% | -19%
CN(c1ncnc2c1c(-c1ccccc1)cn2-c1ccc(F)cc1)C1CCCCC1 | -10% | -8%
Cc1ccccc1C(=O)NNC1CC(=O)N(c2ccc3c(c2)OCCO3)C1=O (stereo not given) | -13% | -8%
Nc1ccc2oc3ccccc3c2c1 | -24% | -8%
Cc1c(-c2nc(-c3ccc4c(c3)OCO4)no2)nnn1-c1ccc(Br)cc1F | -6% | -10%
COc1ccc(OC)c(S(=O)(=O)N2CCC(C(=O)N3CCc4ccccc4C3)CC2)c1 | · | -9%
COc1ccccc1N1CCN(c2ccc3cc(S(=O)(=O)N4CCCCC4)ccc3n2)CC1 | -21%&-22% | -25%&-11%
O=C(O)CCCn1cc(NC(=O)c2ccc(Br)o2)cn1 | -1% | -3%
Cc1ccc(CN2CCCn3nc(C(=O)NCCC(C)C)cc3C2=O)cc1 | -12% | -8%
CCOC(=O)C1=C(COC(=O)CNC(=O)c2ccc(C(C)(C)C)cc2)NC(=O)NC1C (stereo not given) | i | -13%
Nc1cc(=O)nc(SCC(=O)Nc2ccccc2)n1-c1ccccc1 | -4% | -3%
O=C(CN1CCN(c2cccc(C(F)(F)F)c2)CC1)NCc1ccccc1 | -17% | -22%
CCc1ccc(N(C(C)=O)c2nc(CCl)cs2)cc1 | -18% | -10%
CCC(CO)Oc1cc(NC(=O)c2ccc([N+](=O)[O-])cc2)c2ncn(C(C)C)c2c1 (stereo not given) | -21% | -11%
COc1ccc(N(Cc2nnc3n2CCCCC3)C(=O)Nc2ccc(Cl)cc2)cc1Cl | 4% | 0%

Single values from the entries so far.
Value of CCC(CO)Oc1cc(NC(=O)c2ccc([N+](=O)[O-])cc2)c2ncn(C(C)C)c2c1 (stereo not given) under Vaccinia mCherry: -21%
Value of Nc1cc(=O)nc(SCC(=O)Nc2ccccc2)n1-c1ccccc1 under Vaccinia mCherry: -4%
Value of COc1ccccc1N1CCN(c2ccc3cc(S(=O)(=O)N4CCCCC4)ccc3n2)CC1 under Vaccinia Venus: -25%&-11%
Value of O=C(O)CCCn1cc(NC(=O)c2ccc(Br)o2)cn1 under Vaccinia Venus: -3%

More entries.
SMILES | Vaccinia mCherry | Vaccinia Venus
CC1CN=C(Nc2cccc3ccccc23)S1 (stereo not given) | · | -21%
COc1ccc(CCNc2cc(N3CCN(C(=O)c4ccccc4F)CC3)ccc2[N+](=O)[O-])cc1OC | ? | ?
CC(NS(=O)(=O)c1ccccc1)C1CC2CCC1C2 (stereo not given) | -5% | 0%
COc1ccc(N2CCN(C(CNS(=O)(=O)c3ccc(OC)c(C)c3)c3ccco3)CC2)cc1 (stereo not given) | -15% | -16%
O=C(COc1ccccc1)Nc1ccc2nc(SCC(=O)N3CCc4ccccc43)sc2c1 | -19% | -15%
COc1ccc(C2=NS(=O)(=O)N(C)C(C(=O)Nc3cc(OC)c(OC)c(OC)c3)=C2)cc1 | -13% | -19%
CCOC(=O)CCc1c(C)c(C#N)c2[nH]c3ccccc3n2c1=O | -16% | -15%
COC(=O)c1ccc(C(=S)NCC2(N(C)C)CCCCC2)cc1 | -24% | -7%
CC(C)OP(=O)(OC(C)C)C(O)c1ccc2c(c1)OCO2 (stereo not given) | -7% | -7%
O=C(NCc1ccccc1)C(CCc1ccccc1)n1c(=O)c(-c2cc3ccccc3[nH]2)nc2ccccc21 (stereo not given) | ? | -15%
COc1ccc(NC(=O)c2nc(C)c(C3(C)CC(c4ccccc4)=NO3)s2)cc1 (stereo not given) | -5% | ?
O=C(Nc1ccccc1)N(O)c1ccc(Cl)cc1 | · | -6%
CSc1ccccc1NC(=O)Nc1ccccc1Cl | i | -13%
CC(C)(C)C1=Nn2c(nnc2-c2n[nH]c3c2CCC3)SC1 | -14% | -8%
Clc1ccc(Nc2nc(C3CC3)cs2)cc1 | 14% | -12%
NC(=O)[C@@H]1CCCN1C(=O)CCN1Cc2ccccc2OC(c2ccccc2F)C1 (stereo not given in full) | -11% | -7%
O=C(NCCc1ccc2c(c1)OCCO2)c1ccccc1F | -1% | -18%
COc1cccc(-n2c(-c3ccc(C)cc3)cc3c2CC(C)(C)CC3=O)c1 | -4%[7.34 µM] | -4%[7.34 µM]
COc1ccccc1NC(=O)C1CCCN(C(=O)NCc2ccccc2)C1 (stereo not given) | -5% | -5%
O=C(O)CCc1nc2cc(Cl)ccc2n(Cc2ccccc2)c1=O | -6% | -5%

Compounds shown so far that have two or more sulfur atoms, in the order listed:
SMILES | Vaccinia mCherry | Vaccinia Venus
O=C(/C=C/c1ccccc1)NC(=S)N1CCSCC1 | -3% | 0%
CCCC(=O)Nc1nc2ccc(S(=O)(=O)N3CCCCC3)cc2s1 | ? | -25%
COc1ccc(-c2nc3scc(CCNS(=O)(=O)c4ccc(F)c(C(F)(F)F)c4)n3n2)cc1OC | i | -17%
O=C(COc1ccccc1)Nc1ccc2nc(SCC(=O)N3CCc4ccccc43)sc2c1 | -19% | -15%

Next part:
SMILES | Vaccinia mCherry | Vaccinia Venus
CC(C)n1nnnc1C1c2ccccc2C(=O)N1CCc1c[nH]c2ccccc12 (stereo not given) | -14% | -13%
CCOC(=O)c1cccc(NC(=O)CNC(=O)C2CCCCC2)c1 | -13% | -14%
CC1(C)CC(=O)C(C=NCc2ccccn2)=C(O)C1 | -18% | -6%
NNC(=O)c1nnsc1-c1csnn1 | i | -7%
CC(C)(C)OC(=O)N1Cc2ccccc2C[C@H]1C(=O)NCC(=O)NCC1CCCO1 (stereo not given in full) | -7% | -6%
CN(C)c1ccc(-c2ccnc3c2CC(C)(C(=O)Nc2cccc(Oc4ccccc4)c2)O3)cc1 (stereo not given) | 14% | -13%
O=C(Nc1c(C(=O)N2CCCCC2)cnn1-c1ccccc1)c1ccccc1 | -19% | -19%
COc1ccc(/C=C\c2onc(C)c2S(=O)(=O)N2CCC(C(=O)Nc3ccc(F)cc3F)CC2)cc1 | -13% | -16%
O=C(COC(=O)c1ccccc1)NC(=O)NC1CCCC1 | ? | 0%
COc1cccc(/C=C/c2[nH]c(=O)[nH]c(=O)c2[N+](=O)[O-])c1O | -16% | -13%
CCOc1ccccc1N(C(=O)c1snc(C(N)=O)c1N)C(C(=O)NCC1CCCO1)c1ccc2ncccc2c1 (stereo not given) | i | -5%
CN(CC(=O)Nc1ccc(Cl)cc1)C(=O)CCC1CCCC1 | i | -11%
O=[N+]([O-])c1ccc(O)c(CSc2nnnn2-c2ccccc2)c1 | -17% | -10%
Cc1cc(C)n(-c2nc3cc(Cl)ccc3nc2N2CCN(c3cccc(C)c3C)CC2)n1 | i | -16%
COc1ccc(-n2c(C)cc(C(=O)COC(=O)Cn3cnc4ccccc43)c2C)cc1 | ? | -30%
N#Cc1nc(-c2ccccc2)oc1NCc1ccco1 | ? | -14%
Cn1c(=O)cc(OCC(=O)N2CCN(c3ccc(F)cc3)CC2)c2ccccc21 | -3% | 8%
